Screening results deposited in PubChem by National Center for Advancing Translational Sciences (NCATS).
Lassa entry inh – inhibitors of Lassa virus binding or cell entry | Lassa virus pseudotype entry inhibition, cell reporter; control for the full effect not named in the record | Potency, µM (top dose mostly 37.9 µM), without a hit: at the highest dose activity change, negative = inhibition, usual class: inhibitors | 300,000 tested, 1.2% active | AID 540256; active means well fitted inhibition curve with a large enough effect; inconclusive means small, poorly fitted or top-dose-only effect, or effect the other way; inactive means flat fitted curve, though single readings scatter; tested in HEK293 cells; also: % is scaled to controls: 0 for no effect and ±100 for the full control effect; nearly all actives have a fitted effect of over 50% in size; luciferase read-out
Cruzain inh Det – inhibitors of Trypanosoma cruzi cruzain with detergent; P25779; 200,000 tested, 0.43% active; purified cruzain, Z-FR-AMC fluorescence, 0.01% Triton; Potency, µM, for inactives: max response, negative = inhibition, hits mostly inhibitors;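 also: plate controls were neutral wells for no effect and buffer without enzyme for full effect; nearly all actives have a fitted effect of over 40% in size; top concentration of the series not given in the record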
Target sequence (P25779 123-467 limits assumed): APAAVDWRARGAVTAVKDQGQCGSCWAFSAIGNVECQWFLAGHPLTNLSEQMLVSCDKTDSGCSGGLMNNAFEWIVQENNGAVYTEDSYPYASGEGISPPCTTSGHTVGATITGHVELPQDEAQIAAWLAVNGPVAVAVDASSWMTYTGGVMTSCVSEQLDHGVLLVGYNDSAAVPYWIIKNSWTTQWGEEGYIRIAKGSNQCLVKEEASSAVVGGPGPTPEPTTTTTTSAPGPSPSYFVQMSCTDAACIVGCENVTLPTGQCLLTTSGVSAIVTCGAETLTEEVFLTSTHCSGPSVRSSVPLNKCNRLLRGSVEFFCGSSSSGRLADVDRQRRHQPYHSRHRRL
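Detergent-containing run (0.01% Triton X-100) in acetate buffer pH 5.5 with 5 mM DTT: enzyme at 1.5 nM final, 15 min compound preincubation at room temperature, then 2 uM Z-FR-AMC substrate. Activity taken as 60 s fluorescence increase at 360/450 nm.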
SARS PLP yeast – inhibitors of SARS-CoV papain-like protease in yeast. Potency, µM (top dose mostly 32.9 µM), inactives show at the highest dose activity, positive = growth rescue. 330,000 tested, 0.19% active. S. cerevisiae expressing SARS-CoV PLpro, growth rescue; control for the full effect not named in the record; active means well fitted rising curve with a large enough effect; inconclusive means small, poorly fitted or top-dose-only effect; inactive means no such curve, though single readings can be large or run the other way; also: 0% is about no effect; nearly all actives have a fitted effect of over 55% in size; growth read by luminescence after 48 h
NS1 inh – influenza NS1 inhibition; 270,000 tested, 0.4% active; Potency, µM (highest dose often 46.1 µM), inactives show at the top dose activity, positive = more growth; AID 2326; S. cerevisiae slowed by influenza A NS1, growth recovery by OD600; active means well fitted rising curve with a large enough effect; inconclusive means small, poorly fitted or top-dose-only effect; inactive means no such curve, though single readings can be large or run the other way; also: nearly all actives have a fitted effect of over 50% in size
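S. cerevisiae expressing influenza A NS1, grown in glucose, washed, then diluted 1:100 into pH 6.0 -URA galactose medium with 23 nl compound. Growth recovery read as OD600; NS1-free strain serves as control.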
MARV entry inh – inhibitors of Marburg virus binding or cell entry. Marburg virus pseudotyped entry inhibition, cell reporter; control for the full effect not named in the record; about a third of the inactives were read at about 46 µM. Potency, µM (titrated, usually from 37.8 µM), for the others: at the top dose activity change, negative = inhibition, actives largely listed as inhibitors. 300,000 tested, 1.8% active; active = well fitted inhibition curve with a large enough effect; inconclusive = small, poorly fitted or top-dose-only effect, or effect the other way; inactive = flat fitted curve, though single readings scatter; tested in HEK293 cells; about a fifth of its hits are not listed in these tables; also: % is scaled to controls: 0 for no effect and ±100 for the full control effect; luciferase read-out
Cruzain noTriton – blocks cruzain activity in detergent-free assay. P25779. 200,000 tested, 2.3% active. Potency, µM, for the others: max response, negative = inhibition, most hits filed as inhibitors. purified cruzain, Z-FR-AMC fluorescence, no detergent. AID 1476;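 also: plate controls were enzyme without inhibitor for no effect and buffer without enzyme for full effect; nearly all actives have a fitted effect of over 40% in size; top concentration of the series not given in the record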
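Detergent-free condition (0.00005% Triton X-100) in acetate buffer pH 5.5 with DTT. 1.5 nM enzyme and compound were pre-mixed 15 min, then 2 uM Z-FR-AMC substrate added; reaction progress from fluorescence change between first and third reads (60 s).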
StopGo reporter – FMDV 2A StopGo reporter, luciferase signal; human cells with a luciferase reporter of 2A StopGo recoding; control for the full effect not named in the record; Potency, µM (highest dose often 57.9 µM), without a hit: at the top dose signal change, negative = less light; 410,000 tested, 1.2% active; AID 1159524; active = well fitted falling curve with a large enough effect; inconclusive = small, poorly fitted or top-dose-only effect; inactive = no such curve, though single readings can be large or run the other way; tested in HEK293T cells; also: % is scaled to controls: 0 for no effect and ±100 for the full control effect; nearly all actives have a fitted effect of over 45% in size; luciferase light after 4 h
RE007 growth inh – less growth of the S. pombe RE007 Vpr strain | 360,000 tested, 0.21% active | Potency, µM (doses to about 92.2 µM), inactives show at the highest dose activity change, negative = less growth | AID 651644 | S. pombe RE007 Vpr strain, BacTiter-Glo ATP luminescence, 24 h; control for the full effect not named in the record; active = well fitted falling curve with a large enough effect; inconclusive = small, poorly fitted or top-dose-only effect; inactive = no such curve, though single readings can be large or run the other way;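 also: % is scaled to controls: 0 for no effect and ±100 for the full control effect; nearly all actives have a fitted effect of over 50% in size; the assay follows cell death caused by Vpr and the record does not say whether a fall means rescue or toxicity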
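Fission yeast RE007 carrying one integrated HIV-1 vpr copy, seeded at OD 0.01 in PMG+AL medium with 23 nL pinned compound. Grown 24 h at 30 degrees; viability read by BacTiter-Glo luminescence after 5 min.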
Active calls of the source: *; ? = inconclusive; nt = no result given; [ ] = another dose, or the depositor's remark. Unless noted, calls follow the shape of the dose curve; as a rule, active = well fitted curve in the direction sought with a large enough effect; inconclusive = small, poorly fitted or top-dose-only effect, or another doubt; inactive = no such curve, though single readings can be large; an effect the other way counts as inactive or inconclusive. Potency is read from the fitted curve at half-maximal effect. Outcome played no part in choosing rows; 4.7% or so of the library scored in one or more.

Compound	Lassa entry inh	Cruzain inh Det	SARS PLP yeast	NS1 inh	MARV entry inh	Cruzain noTriton	StopGo reporter	RE007 growth inh
CCc1cc2c(=O)c(Oc3ccccc3F)c(C)oc2c(CN(C)C)c1O	-4%	-24%	5%	7%	11%	29%	-5%	16%
COc1ccc(/C=N/OCC(=O)Nc2nc3ccccc3s2)cc1	-17%	-9.9%	-37%	11%	-1%	10%	-18%	14%
c1cncc(CNC2=NCCC2)c1	15%	5.4%	-3%	1%	6%	7%	-19%	-5%
O=C1CCCCN1CCC(=O)N1CCCC(N2CCN(c3ccccc3)CC2)C1 (stereo unspecified)	nt	nt	0%	-12%	nt	nt	9%	4%
NS(=O)(=O)c1ccc2nc(NC(=O)CS(=O)(=O)c3ccc(F)cc3)sc2c1	nt	nt	1%	-5%	nt	nt	-1%	0%
COc1cccc(CNS(=O)(=O)c2c(C)[nH]c(C)c2C(=O)N2CCCC2)c1	nt	nt	0%	3%	nt	nt	9%	0%
Nc1nc(CN2CCCCCC2)nc(Nc2ccccc2)n1	10%	-3.2%	1%	15%	-8%	-17%	6%	-10%
Cc1cccc2c1-c1sc(C(=O)N3CCN(c4cccc(Cl)c4)CC3)cc1CO2	nt	-3.1%	nt	nt	20%[46.1 µM]	?	-12%	nt
COc1ccc(OC)c(CNC(=O)C2CCCN(C(=O)N(C)C)C2)c1 (stereo unspecified)	?	3.1%	?	0%	11%	-8%	22%	-3%
CCn1cc(SCC(=O)Nc2cc(C)on2)c2ccccc21	-18%	0.3%	-28%	-16%	0%	6%	-23%	-10%
CNS(=O)(=O)c1cccc(C(=O)Nc2cccc(Cl)c2)c1	3%	-3.1%	5%	0%	-33%[46.1 µM]	3%	22%	2%
Cc1cc(C)c[n+](-c2nc3ccccc3nc2[N-]S(=O)(=O)c2ccc(Br)s2)c1	-10%	-0.3%	-3%	-3%	-6%	17%	64%[activator]	5%
CCN(CC)S(=O)(=O)c1ccc(N=NC2=C(O)CCCC2=O)cc1	nt	-7.1%	21%	6%	5%	10%	2%	-11%
CCC(O)c1cc2c(cc1NC(=O)c1ccccc1F)OCCO2 (stereo unspecified)	1%[46.1 µM]	3.7%	nt	nt	nt	3%	-2%	nt
CCOC(=O)c1nnc(-c2ccc(C)cc2)nc1Oc1ccc(Cl)cc1Cl	-28%	1.4%	8%	9%	20%[46.1 µM]	-11%	?	2%
CN(C)C(=O)CN1C(=O)NC2(CCCc3ccccc32)C1=O (stereo unspecified)	?	nt	6%	6%	nt	nt	-2%	0%
Cc1nnc(NC(=O)c2ccc(S(=O)(=O)N3CC(C)OC(C)C3)cc2)o1 (stereo unspecified)	5%	nt	-2%	0%	5%	nt	-7%	4%
c1ccc(-c2nnc(N3CCN(c4ccccc4)CC3)nc2-c2ccccc2)cc1	-1%	nt	1%	5%	17%[46.1 µM]	nt	-23%	18%
CN(C)CCSc1nc(-c2ccccc2)nc2c1CCC2	nt	-4.9%	-12%	1%	nt	-13%	1%	-5%
CCCNc1ncc2c(=O)[nH][nH]c(=O)c2n1	12%[46.1 µM]	nt	nt	nt	-13%[46.1 µM]	nt	5%	-2%
Cc1ccc(OCC(=O)NC2CCCC2)c(C)c1	?	5.7%	-1%	-16%	?	4%	0%	-18%
Cc1ccc(OCC(=O)N(Cc2ccco2)Cc2ccco2)cc1C	17%[46.1 µM]	-5.0%	nt	nt	10%[46.1 µM]	-9%	-6%	nt
CC(=O)Nc1cc(C(=O)OC(C(=O)c2ccccc2)c2ccccc2)ccc1C (stereo unspecified)	?	-11%	-30%	-59%	0%	?	-14%	15%
O=c1c2ccccc2ncn1CCCCOc1ccccc1F	nt	nt	-4%	-30%	nt	nt	7%	-11%
CC(=O)c1cccc(NC(=O)CSc2nc(=O)n(CCCN3CCOCC3)c3c2CCC3)c1	8%	nt	nt	nt	-13%	nt	-8%	-7%
CC1NC2(C(=O)N(Cc3ccccc3)c3ccccc32)C2C(=O)N(c3ccccc3)C(=O)C12 (stereo unspecified)	nt	-2.4%	10%	-58%	-2%	3%	-7%	6%
COc1cc(/C=N/NC(=O)C(=O)/C=C2\NC3(CCCC3)Cc3ccccc32)ccc1O	-20%	-7.6%	-10%	5%	?	-2%	?	7%
COc1cc(CNCc2ccccn2)ccc1OCc1ccc(Cl)cc1	-7%	3.8%	?	-7%	?	0%	-12%	7%
CCn1c(C)nc2c1C(=O)c1ccccc1C2=O	-4%	-2.7%	-12%	-67%	3%	4%	-14%	?
CCOC(=O)C(=NCC1CCCO1)NNc1cc(Cl)ccc1Cl (stereo unspecified)	-9%	nt	-8%	-59%	-8%[46.1 µM]	nt	-20%	147%
COc1ccc(Cc2nc3ccc(C(=O)NCc4ccc(OC)cc4OC)cc3o2)cc1	-25%[46.1 µM]	-5.3%	nt	nt	nt	?	-22%	nt
CCN(CC)S(=O)(=O)c1ccc(NC(=O)NCc2noc3ccc(C)cc23)cc1	?	0.1%	nt	nt	nt	-4%	?	nt
O=C(NCCc1ccccc1)Oc1ccc(Cl)cc1	nt	nt	0%	-7%	nt	nt	0%	-15%
Cc1cc(NC(=O)c2cc(-c3ccccn3)nc3ccccc23)no1	5%	-4.1%	6%	-38%	-1%	-6%	nt	10%
O=c1[nH]c(O)c(C=Nc2ccc(Cl)c(C(F)(F)F)c2)c(=O)[nH]1	-26%	nt	4%	6%	-1%	nt	-15%	2%
CCc1ccc(N=C2NC(=O)/C(=C/c3ccc(OCC(=O)O)cc3)S2)cc1	nt	nt	-2%	10%	nt	nt	47%[activator]	2%
CCCCn1c(SCC(=O)NC2CCS(=O)(=O)C2)nc2ccccc2c1=O (stereo unspecified)	14%[46.1 µM]	nt	?	-3%	0%[46.1 µM]	nt	0%	7%
CC1(C)CCc2c([nH]c3ccccc3c2=O)O1	nt	nt	0%	6%	nt	nt	8%	-5%
COc1ccc(-c2oc3ncn4nc(COc5cccc(C)c5C)nc4c3c2-c2ccc(OC)cc2)cc1	?	-2.0%	nt	nt	8%[46.1 µM]	-7%	-15%	nt
COC(=O)[C@@H](NCc1cccc(CN[C@H](C(=O)OC)C(C)C)c1)C(C)C	nt	nt	11%	6%	nt	nt	-7%	-3%
Cc1ccc(N2C(=O)c3ccc(N)cc3C2=O)cc1C	3%	-5.7%	-4%	-34%	2%	-1%	29%	-2%
Fc1ccccc1OCCCCN1CCCCC1	nt	nt	-1%	0%	nt	nt	-6%	1%
CC(C)NC(=O)c1sc2c(c1C(=O)Nc1cccnc1)CCCC2	nt	nt	-2%	-6%	nt	nt	2%	0%
Cc1ccc([C@@H]2C3COCC=C3C(C#N)=C(N)C2(C#N)C#N)o1 (stereo partly specified)	-4%	-2.3%	1%	8%	-3%	10%	-8%	-4%
COCCN(C(=O)COC(=O)/C=C/c1cccc(C(F)(F)F)c1)c1c(N)n(CC(C)C)c(=O)[nH]c1=O	-14%	nt	-6%	nt	7%	nt	-14%	2%
N#C/C(=C\c1c[nH]c2ccccc12)C(=O)NCC1CCCO1 (stereo unspecified)	-29%[46.1 µM]	nt	0%	-10%	?	nt	17%	-2%
CC(=O)c1sc2c(c1C)c(=O)n(-c1ccc(Cl)cc1)c(=O)n2Cc1ccc(Cl)cc1	?	-2.8%	nt	nt	?	?	-28%	nt
Cc1ccc(C)c(OCCC(=O)OCC(=O)NC2CC2)c1	2%	nt	-1%	nt	8%[46.1 µM]	nt	-18%	-3%
CCCN(CCC)S(=O)(=O)c1ccc(C(=O)Nc2nnc(-c3cc(OC)cc(OC)c3)o2)cc1	-8%	-2.5%	3%	-18%	?	6%	?	-9%
O=C(c1ccc(OC2CCN(CCc3ccccc3)CC2)cc1)N1CCCCC1CCCO (stereo unspecified)	?	nt	?	2%	?	nt	-27%	-6%
O=C(CC1CCCCC1)Nc1ccc(-c2ccc3nncn3n2)cc1	?	nt	2%	nt	?	nt	-25%	-27%
COc1ccccc1/C=C/C(=O)OCC(=O)Nc1c(F)cccc1F	-8%[46.1 µM]	nt	-1%	3%	3%[46.1 µM]	nt	15%	16%
COc1cc(C(C(=O)NC2CCCC2)N(CCO)C(=O)Cn2nnc(-c3ccc(C)o3)n2)ccc1O (stereo unspecified)	nt	nt	-3%	1%	1%[46.1 µM]	nt	-5%	5%
CCc1ccc[n+](-c2[nH]c(=O)sc2/C=N/N=C(\[O-])c2cccnc2)c1	20%[46.1 µM]	nt	13%	-1%	?	nt	-3%	16%
O=C(NC1CCCCC1)C(c1ccccc1)N(Cc1ccc2c(c1)OCO2)C(=O)c1cnsn1 (stereo unspecified)	?	-5.3%	-4%	5%	11µM*	-1%	8%	22%
Cc1cccnc1NC(=O)CSc1nnc(Cc2ccccc2)o1	15%	2.4%	-19%	-3%	30%	?	8%	-1%
O=Cc1ccc(C(=O)O)cc1	nt	6.2%	-1%	nt	nt	1%	-21%	7%
COc1ccc2c(c1)c1c(c(=O)n(-c3cccc(Cl)c3)c(=O)n1C)n2C	-9%[46.1 µM]	-1.7%	nt	nt	nt	3%	-14%	nt
COc1ccc(NC(=O)COc2ccccc2Cl)cc1S(=O)(=O)N1CCCCC1	?	nt	2%	nt	?	nt	-6%	29%
